Bead autofluor: compound fluorescence in toxin protease inhibitor counterscreen | compound autofluorescence counterscreen, microsphere flow cytometry; hits give high values | fluorescence intensity (concentration not given with the values) | 360,000 tested, 3.1% active | AID 624483;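 active = at least 3 SD above the mean of all compounds, about 16000 in these data; inconclusive = too few beads counted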;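 note: 100 nL of 1 mM stock went into each well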
BJeLR viability: BJeLR cell viability loss; 300,000 tested, 0.17% active; inhibition, % (no concentration beside the values); BJeLR (HRASV12) viability, CellTiter-Glo ATP luminescence, 48 h; reference of the scale not given here;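 active = replicate mean above 50%; inconclusive = above 50% but judged a plate artefact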;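 note: 50 nL library stock added to about 25 µL; numbers are from one replicate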
Mtb hypoxia inh: Mtb hypoxia fluorescent reporter inhibition; M. tuberculosis hypoxia-regulated fluorescent reporter, fluorescence; 300,000 tested, 0.1% active; AID 1159583; fluorescence inhibition, % (concentration not given with the values);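 active = 35 to 45% if threefold the growth effect, above 45% if 1.5-fold the growth effect; inactive = the rest, general growth blockers included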;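 note: wells of about 50 µL received 100 nL stock; 0% = vehicle wells and 100% = reference inhibitor wells; whole bacteria with a GFP reporter of the hypoxia response; strong numbers were not always called active; many hits fall short of the cut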
PrP UTR inh: inhibition of PrP 5' UTR reporter expression. 340,000 tested, 0.35% active. inhibition, % (test concentration not listed). cell-based PrP 5' UTR mRNA reporter, plate reader;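 active = every replicate at 50% or more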;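 note: 0 = median of the neutral control wells; tested in H4 reporter cells; numbers are from one replicate; inactives centre near -14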
Sa RN4220 lethal: kills Staphylococcus aureus RN4220. S. aureus RN4220 growth, OD600, 16 h. inhibition, % (no concentration beside the values). 330,000 tested, 0.33% active. AID 1259311;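 active = z-score of -3 or lower and OD600 up to 0.18 on both plates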;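 note: plate controls were untreated cells for no effect and reference antibiotic for full effect; stock transfer was 100 nL into about 80 µL; one replicate is shown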
ugtP null kill: compounds lethal to S. aureus RN4220 ugtP deletion mutant. OD600 growth, 16 h; some inactives read as strong as hits. growth inhibition, % (no concentration beside the values). 330,000 tested, 0.54% active. AID 1259309;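 active = z-score under -3 and OD600 up to 0.15 on both plates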;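 note: plate controls were untreated wells for no effect and antibiotic for full effect; wells of about 80 µL received 100 nL stock; the first replicate is given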
Mtb hypoxia inh growth: also measured in Mtb hypoxia inh; calls as there; growth inhibition, %; measured here: M. tuberculosis growth (absorbance);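 0% = vehicle and 100% = reference antibiotic; read after six days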
* marks the source's active call; other numbers are inactive results; ? = inconclusive; · = not tested or not shown. Compounds were not picked by outcome; 4% or so of the library scored in one or more.

SMILES | Bead autofluor | BJeLR viability | Mtb hypoxia inh | Mtb hypoxia inh growth | PrP UTR inh | Sa RN4220 lethal | ugtP null kill
Cc1ccc(S(=O)(=O)Nc2ccc(-c3nc4ccc(C)cc4s3)cc2)cc1 | 2565 | -4 | -5 | -2 | · | -0.2 | 0
CC(=O)c1ccc(OCC(=O)NCCC2=CCCCC2)cc1 | ? | · | 5 | 11 | -14 | 8.1 | 14
O=C1CSC(=S)N1/N=C/c1ccc2c(c1)OCCO2 | 3539 | -6 | · | · | 5 | · | ·
Cc1ccc(NC(=O)CNC(=O)c2cccc(C)c2)nc1 | · | -1 | -5 | 0 | -12 | -1.6 | 1
S=C(Nc1ccccc1)N1CCC(Cc2ccccc2)CC1 | 3767 | 3 | 13 | 12 | -18 | 3.6 | 13
O=C(NCC(=O)N(c1cccnc1)C(C(=O)NC1CCCCC1)c1ccccc1)c1ccco1 (centres undefined) | 3457 | -14 | 5 | 0 | -14 | 2.6 | 4
CCC(=O)N1CCc2cc(S(=O)(=O)NCCCN(CC)Cc3ccccc3)ccc21 | 4528 | -1 | -3 | 8 | -2 | -0.3 | 3
CC(=O)c1cccc(NC(=O)c2ccccc2-c2ccccc2C(=O)O)c1 | 3647 | 4 | · | · | -20 | 4.1 | 1
CC(C)NC1(C#N)CCN(Cc2ccccc2)CC1 | 4378 | · | 6 | 9 | -12 | 1.0 | 3
O=C(COc1cc2oc(=O)c3c(c2cc1Cl)CCC3)NCCCN1CCCC1=O | 5504 | 1 | 2 | 1 | -17 | -2.3 | -1
COc1ccccc1NC(=O)c1ccc(NC(=O)COC(=O)C2CC2C)cc1 (centres undefined) | 2539 | -14 | · | · | -14 | · | ·
Cn1cccc1CC(=O)NN=Cc1cccs1 | · | · | 0 | 14 | · | -8.1 | -11
CC1CN(c2oc(-c3ccccc3Cl)nc2C#N)CC(C)O1 (centres undefined) | 3013 | -6 | · | · | -22 | -1.5 | 4
Nc1cc(Cl)ccc1N1CCCCCC1 | 4839 | -19 | -9 | -2 | -13 | 9.1 | 14
Cc1ccc(OCC(=O)NCc2cccs2)cc1 | 9094 | -4 | 26 | 19 | -39 | 7.0 | -11
COc1cc(S(=O)(=O)Nc2ccncc2)ccc1F | 4132 | 2 | -2 | -4 | -29 | -0.4 | 1
O=C(COc1ncnc2sccc12)NC1CCCCC1 | 4849 | · | -4 | -2 | -16 | 1.2 | 4
CN1CCN(c2ccc(Cl)cc2NC(=O)CC2OC(=O)c3ccccc32)CC1 (centres undefined) | 4932 | -8 | 2 | 3 | -10 | 2.0 | 8
O=C(Cc1ccc2c(c1)OCCO2)Nc1cc(Cl)ccc1N1CCOCC1 | 5748 | · | 13 | 8 | -11 | 1.0 | -3
CC(=O)N1CCc2cc(S(=O)(=O)NC(CC(C)C)C(=O)N3CCn4c3nc3ccccc34)ccc21 (centres undefined) | 21252* | -3 | -5 | 5 | -11 | -0.1 | -6
COCCCNC(=S)N(CCO)Cc1cc2cc3c(cc2[nH]c1=O)OCCO3 | 4187 | 7 | 12 | 7 | -11 | 4.1 | 8
COc1cc(C)c(S(=O)(=O)Nc2ccc(CC(=O)O)cc2)cc1C | 25248* | 4 | 5 | -2 | -26 | 4.6 | 15
Cc1ccccc1Nc1ncnc(N)n1 | 4031 | -13 | 7 | 5 | 18 | 9.6 | 3
COc1cc2c(cc1OC)CN(C(=O)C1CCCN(C(=O)c3ccc(Cl)cc3)C1)CC2 (centres undefined) | 6598 | · | 0 | 1 | -7 | 5.3 | 10

Continued; the last four above are carried over.
SMILES | Bead autofluor | BJeLR viability | Mtb hypoxia inh | Mtb hypoxia inh growth | PrP UTR inh | Sa RN4220 lethal | ugtP null kill
COCCCNC(=S)N(CCO)Cc1cc2cc3c(cc2[nH]c1=O)OCCO3 | 4187 | 7 | 12 | 7 | -11 | 4.1 | 8
COc1cc(C)c(S(=O)(=O)Nc2ccc(CC(=O)O)cc2)cc1C | 25248* | 4 | 5 | -2 | -26 | 4.6 | 15
Cc1ccccc1Nc1ncnc(N)n1 | 4031 | -13 | 7 | 5 | 18 | 9.6 | 3
COc1cc2c(cc1OC)CN(C(=O)C1CCCN(C(=O)c3ccc(Cl)cc3)C1)CC2 (centres undefined) | 6598 | · | 0 | 1 | -7 | 5.3 | 10
COc1cccc(OCC(O)CNC(=O)c2oc3c(C)c(C)ccc3c2C)c1 (centres undefined) | 4389 | 10 | 4 | -2 | -47 | 3.8 | 4
COc1ccc(S(=O)(=O)N2CCCCC2)cc1NC(=O)CSc1nccn1C | 4180 | 5 | 1 | -2 | -5 | 1.3 | 4
CCc1ccc(CNc2ccc(N3CCN(C(C)=O)CC3)cc2)cc1 | 3223 | 3 | 2 | 6 | -15 | 3.5 | 7
COc1ccc(-c2cc(CCCC(=O)NCc3ccccn3)no2)cc1 | 6688 | 4 | 5 | 6 | -33 | -10 | 7
c1ccc(OCc2nn3c(-c4ccccn4)nnc3s2)cc1 | 9463 | -7 | · | · | -17 | 4.3 | 2
COc1ccc(OC)c2sc(N3CCc4ccccc4C3)nc12 | 4469 | -1 | 9 | 12 | -13 | -0.5 | 8
Brc1ccc(-c2nnc(SCCC3OCCCO3)o2)cc1 | 3567 | -5 | 24 | 13 | -58 | 8.4 | 11
c1ccc(-c2csc3nnc(SCc4ccc5c(c4)OCCO5)n23)cc1 | 2997 | 4 | · | · | -24 | 1.6 | -13
COc1ccc(/C=N/NC(=O)c2cccc(C(=O)N/N=C/c3ccc(OC)c(OC)c3)n2)cc1OC | 2959 | 19 | · | · | -11 | · | ·
CCOC(=O)c1c(C)c(C(=O)N2CCN(c3ccccc3)CC2)c(C)n1C | 2143 | 4 | -6 | 7 | -23 | -2.5 | 3
N#CC1(NC(=O)CSc2nc3ccccc3o2)CCCCC1 | 2929 | · | 1 | 2 | -18 | 5.4 | 10
CCOc1cc2nc(-c3ccc(OC)c(OC)c3)nc(N3CCOCC3)c2cc1OC | · | 2 | · | · | · | 1.2 | -9

Grouped by structure: the entries above containing a COOH group (2)
SMILES | Bead autofluor | BJeLR viability | Mtb hypoxia inh | Mtb hypoxia inh growth | PrP UTR inh | Sa RN4220 lethal | ugtP null kill
CC(=O)c1cccc(NC(=O)c2ccccc2-c2ccccc2C(=O)O)c1 | 3647 | 4 | · | · | -20 | 4.1 | 1
COc1cc(C)c(S(=O)(=O)Nc2ccc(CC(=O)O)cc2)cc1C | 25248* | 4 | 5 | -2 | -26 | 4.6 | 15

Other results follow:
SMILES | Bead autofluor | BJeLR viability | Mtb hypoxia inh | Mtb hypoxia inh growth | PrP UTR inh | Sa RN4220 lethal | ugtP null kill
Cc1ccc2c(C)c(C(=O)N3CCC(N4CCC(C(=O)NC5CC5)CC4)CC3)oc2c1 | 5229 | 6 | 19 | 5 | -3 | 1.0 | 4
O=C(O)CC1(CC(=O)Nc2ccc3c(c2)OCCCO3)CCCCC1 | 4293 | -1 | 9 | -2 | -26 | 4.3 | 7
CCOP(=O)(OCC)c1nc(-c2ccc(Br)cc2)oc1N1CCCCC1 | 4053 | -5 | 13 | -3 | -13 | 4.2 | -6
O=S(=O)(NCc1ccccc1)c1ccc(S(=O)(=O)NCC2CCCO2)cc1 (centres undefined) | 3345 | 1 | 5 | 4 | -12 | 4.3 | 5
O=C1CNC(=S)N1C1CCCCCC1 | 5811 | -7 | 3 | 5 | -21 | 2.0 | 7
CC(=O)NC(Cc1cccc(F)c1)C(=O)NC1CCN(C(=O)Nc2ccc(C)cc2)CC1 (centres undefined) | 3004 | -1 | 12 | 6 | 4 | 4.5 | 7
COC(=O)c1ccc(-c2nc(-c3ccc(Br)o3)no2)cc1 | 6383 | 13 | 6 | 3 | -44 | 3.5 | 11
O=C(Nc1ccc2c(c1)OCCO2)C1CCN(c2cnccn2)CC1 | 9573 | 2 | 2 | -3 | -41 | -3.6 | 1
O=C(CN1C(=O)c2ccccc2C1=O)NN1C(=O)c2ccccc2C1=O | 8113 | -1 | 3 | 3 | -7 | 0.8 | -2
Cc1c(NC(=O)Nc2cccc(C(F)(F)F)c2)c(=O)n(-c2ccccc2)n1C | 6822 | -3 | -2 | 0 | -12 | -2.7 | -2
N#CCc1ccc(OC(=O)Nc2ccccc2)cc1 | 3846 | 5 | -2 | 8 | · | 0.9 | 6
COc1ccc2oc(C(=O)N3CCN(S(=O)(=O)c4ccc(F)cc4)CC3)c(C)c2c1 | 4532 | · | 4 | 5 | 1 | 2.9 | 21

The list goes on; it opens with the 2 that closed the last part.
SMILES | Bead autofluor | BJeLR viability | Mtb hypoxia inh | Mtb hypoxia inh growth | PrP UTR inh | Sa RN4220 lethal | ugtP null kill
N#CCc1ccc(OC(=O)Nc2ccccc2)cc1 | 3846 | 5 | -2 | 8 | · | 0.9 | 6
COc1ccc2oc(C(=O)N3CCN(S(=O)(=O)c4ccc(F)cc4)CC3)c(C)c2c1 | 4532 | · | 4 | 5 | 1 | 2.9 | 21
CC(C)(C)NC(=O)C(c1ccccc1)N(Cc1ccco1)C(=O)c1csnn1 (centres undefined) | 3670 | -3 | 12 | 11 | -19 | 8.1 | -8
CC(=O)OCC(=O)Nc1ccc(Br)c(C)c1 | 3345 | 2 | 11 | 1 | -6 | 0.9 | 1
COc1cccc(CNCc2cc(OC)cc(OC)c2)c1 | · | -4 | 18 | 2 | -43 | 4.8 | 3
NC(=O)c1ccccc1NC(=O)Nc1ccccc1Cl | 2281 | -2 | 7 | 0 | 1 | 6.0 | 6
Cc1[nH]c2c(C)cccc2c1CCNS(=O)(=O)c1cccc([N+](=O)[O-])c1 | 2075 | -4 | -5 | 11 | -14 | 6.7 | -11
COc1ccc(CCN2CC(C(=O)NCc3cc(C)on3)CCC2=O)cc1 (centres undefined) | 5721 | 1 | 8 | 7 | -8 | 2.6 | 2
CC(C)=CCN1CCN(Cc2c[nH]c3ccccc23)CC1CCO (centres undefined) | 4262 | 0 | 17 | 5 | -13 | 2.3 | 10
CCOC(=O)c1cnc(SCC(C)C)nc1N | 3420 | 3 | 17 | 14 | -83 | 18 | 4
Cc1ccc2oc(C(=O)NCc3ccc(S(N)(=O)=O)cc3)cc(=O)c2c1 | 3735 | 3 | -2 | -2 | -13 | 0.3 | -5
COc1cc(NC(=O)CN(C)S(=O)(=O)c2ccc3nc(C)sc3c2)cc(OC)c1 | 3441 | 0 | 12 | 3 | -9 | 6.2 | -1
COc1ccccc1CC(=O)N1CCCc2cc(C)ccc21 | 3542 | -5 | 2 | 5 | -14 | 4.4 | 7
Cc1ccc(CCc2nnc(SCC(=O)Nc3cc(Cl)ccc3Cl)n2-c2ccccc2)o1 | 9711 | -8 | 12 | 5 | -13 | 1.5 | 0
Cc1ccc(OCC(=O)Nc2ccc(-c3nc4ncccc4o3)cc2)cc1 | 8163 | -2 | 13 | 7 | -39 | 6.8 | -19

At a glance, part of the list above.
SMILES | Bead autofluor | BJeLR viability | Mtb hypoxia inh | Mtb hypoxia inh growth | PrP UTR inh | Sa RN4220 lethal | ugtP null kill
COc1cc(NC(=O)CN(C)S(=O)(=O)c2ccc3nc(C)sc3c2)cc(OC)c1 | 3441 | 0 | 12 | 3 | -9 | 6.2 | -1
COc1ccccc1CC(=O)N1CCCc2cc(C)ccc21 | 3542 | -5 | 2 | 5 | -14 | 4.4 | 7
Cc1ccc(CCc2nnc(SCC(=O)Nc3cc(Cl)ccc3Cl)n2-c2ccccc2)o1 | 9711 | -8 | 12 | 5 | -13 | 1.5 | 0
Cc1ccc(OCC(=O)Nc2ccc(-c3nc4ncccc4o3)cc2)cc1 | 8163 | -2 | 13 | 7 | -39 | 6.8 | -19
